Compound activity (PubChem BioAssay)
Sa growth inh: S. aureus growth inhibition. relative growth, % (no concentration beside the values). actives 0.53% (n = 170,000). S. aureus RN4220 growth, OD600, 20 h, 42 °C; hits give low values;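 active = growth at 42 °C up to 50% and 20 or more points under that at 30 °C, or under 10% at both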;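 note: 300 nL library stock went into each well; scaled to the means of positive and negative controls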
HCMV UL50-53 inh: disrupts HCMV UL50-UL53 complex binding. AID 1918969. actives 0.15% (n = 190,000). HTRF UL50-UL53 interaction, normalized percent inhibition. inhibition, % (concentration not given with the values);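 active = both replicates at 50% or more, plus weaker picks with an unusually low signal ratio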;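 note: stock transfer was 100 nL into about 20 µL; 0% = negative control wells and 100% = wells with untagged competitor protein; inactives centre near -12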
GIV Gai3 FP: inhibitors of GIV GBA-motif binding to rat Galpha-i3; P08753; actives 0.42% (n = 210,000); Galpha-i3/FITC-GIV peptide fluorescence polarization, 90 min; hits give low values; scaled: aluminum fluoride 0%, vehicle 100%; AID 1224905; percent of control (FP), % (no concentration beside the values);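 active = replicate mean at 85% of control or lower, very high polarization wells dropped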;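 note: wells of about 15 µL received 100 nL stock; the first replicate is given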
Target sequence (P08753 whole entry, looked up): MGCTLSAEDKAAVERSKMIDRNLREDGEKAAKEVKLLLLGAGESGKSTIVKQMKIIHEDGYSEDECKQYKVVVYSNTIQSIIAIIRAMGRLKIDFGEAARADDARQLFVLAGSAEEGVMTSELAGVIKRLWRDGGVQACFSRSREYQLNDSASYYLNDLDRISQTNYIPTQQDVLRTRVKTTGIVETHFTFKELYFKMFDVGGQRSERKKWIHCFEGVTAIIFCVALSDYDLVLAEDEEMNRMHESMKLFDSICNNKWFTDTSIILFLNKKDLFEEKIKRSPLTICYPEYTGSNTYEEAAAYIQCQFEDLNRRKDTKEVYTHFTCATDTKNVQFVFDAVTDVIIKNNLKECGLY
Sa growth inh second temp: second read-out of Sa growth inh, no call of its own (marks repeat the call); relative growth, %; measured here: growth at 30 °C;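 optical density after 20 h as mean of two plates; 100% = untreated growth and lower means inhibition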
The depositor's hits bear a star; · = no result given.

item	mol	Sa growth inh	Sa growth inh second temp
1	COc1ccccc1NC(=S)N(Cc1ccccc1)Cc1cccn1Cc1ccc(F)cc1Cl	95	96
2	N#CC(C(=O)Nc1ccccc1)=C1CCCCC1	81	112
3	O=C(N=Nc1c(O)[nH]c2ccccc12)c1cccnc1	92	87
4	CCOC(=O)C1CCN(S(=O)(=O)c2cc3c(cc2Br)CCN3C(=O)C2CC2)CC1	·	·
5	S=c1[nH]nc2n1CCCCC2	90	92
6	O=C(c1ccccc1Cl)N1CCC(N2CCN(Cc3ccc(F)cc3)C2=O)CC1	·	·
7	O=C(NCCCn1ccnc1)C1CC(c2cccc(Br)c2)=NO1 (stereo unspecified)	95	90
8	COCCn1c(SCC(=O)c2ccccc2)nc2cc(C(=O)NC3CCCC3)ccc2c1=O	74	74

item	HCMV UL50-53 inh	GIV Gai3 FP
1	·	101
2	-2	110
3	-100	103
4	23	104
5	-5	·
6	-21	106
7	-12	103
8	·	103

Following part.
item	mol	Sa growth inh	Sa growth inh second temp
9	COc1ccc(N(C(=O)c2cccnc2)S(=O)(=O)c2ccc3c(c2)n(C)c(=O)n3C)cc1	·	·
10	CC(C)(C)c1ccc(-c2nn3c(-c4cccnc4)nnc3s2)cc1	·	·
11	COc1cc2c(C(=O)N3CCN(c4cccc(C)c4)C(C)C3)cn(CC(C)C)c(=O)c2cc1OC (stereo unspecified)	97	79
12	O=C(COc1ccccc1)Nc1ncc2c(n1)CC(c1ccccc1)CC2=O (stereo unspecified)	·	·
13	CCc1ccc(-c2nc(CSCC(=O)NCc3ccccc3OC)c(C)o2)cc1	87	91
14	COc1ccc2oc(=O)c(-c3csc(-c4ccc(Br)cc4)n3)cc2c1	109	94
15	O=C(O)C1CC=CCC1C(=O)Nc1ccccc1 (stereo unspecified)	110	62
16	CC1CCCC(C)N1C(=O)COC(=O)c1ccccc1Oc1ccccc1 (stereo unspecified)	108	96

item	HCMV UL50-53 inh	GIV Gai3 FP
9	3	99
10	0	107
11	-9	109
12	-16	103
13	-26	104
14	·	111
15	-1	104
16	-24	·

(continued)
item	mol	Sa growth inh	Sa growth inh second temp
17	COc1ccc2c(C)cc3nncn3c2c1	101	91
18	O=C(CSc1nncs1)NC(=O)NC1CCCC1	119	97
19	CC(C1CC1)n1nccc1NC(=O)COc1ccc(Cl)cc1 (stereo unspecified)	·	·
20	CCOC(=O)c1[nH]c(C)c(S(=O)(=O)Nc2cccnc2)c1C	·	·
21	CCN(c1ccccc1)S(=O)(=O)c1ccc2[nH]cc(C(=O)NC3CCCCC3)c(=O)c2c1	127	98
22	O=C(CS(=O)(=O)c1ccccc1)Nc1ccc2c(c1)C(=O)NC2=O	93	81
23	Cc1cc2oc(C(=O)Nc3sc4c(c3C(=O)NCc3ccco3)CCC4)cc(=O)c2cc1C	97	84
24	CC(Oc1ccc(Cl)cc1Cl)c1ccnc2ncnn12 (stereo unspecified)	·	·

item	HCMV UL50-53 inh	GIV Gai3 FP
17	-8	·
18	7	·
19	-18	102
20	-20	107
21	·	103
22	-86	101
23	-17	100
24	-11	101

The last 2 entries of the section above lead into the next.
item	mol	Sa growth inh	Sa growth inh second temp
23	Cc1cc2oc(C(=O)Nc3sc4c(c3C(=O)NCc3ccco3)CCC4)cc(=O)c2cc1C	97	84
24	CC(Oc1ccc(Cl)cc1Cl)c1ccnc2ncnn12 (stereo unspecified)	·	·
25	COc1ccc(N(C(=O)C(C)Oc2ccccc2)C2C=CS(=O)(=O)C2)cc1 (stereo unspecified)	101	102
26	COC(=O)c1c[nH]n2c(NC3CCCCC3)c(-c3ccc(C)cc3)nc12	87	83
27	CC1CC(N(C(=O)c2sc3cc([N+](=O)[O-])ccc3c2Cl)c2ccccc2)c2ccccc2N1C(=O)Cc1ccccc1 (stereo unspecified)	·	·
28	CC1CCN(S(=O)(=O)c2cc(C(=O)O)ccc2Cl)CC1	131	88
29	CCOc1cc(C2CC(=O)NC(SCC(=O)Nc3cccc(C)c3C)=C2C#N)ccc1O (stereo unspecified)	·	·
30	COc1ccccc1CNC(=O)c1cnc(SC)nc1C	120	93
31	COc1ccc(-c2nnc(SCc3cc(=O)c4cc(C)cc(C)c4[nH]3)n2C)cc1	102	94
32	CC(C)c1nc(NCCO)c2nnn(Cc3ccccc3)c2n1	105	78

item	HCMV UL50-53 inh	GIV Gai3 FP
23	-17	100
24	-11	101
25	10	105
26	·	98
27	-24	101
28	-8	94
29	-19	104
30	·	117
31	·	114
32	-17	103

Shown with two lines to a compound: entries from further up.
Fields: Sa growth inh | Sa growth inh second temp | HCMV UL50-53 inh | GIV Gai3 FP
#1 COc1ccccc1NC(=S)N(Cc1ccccc1)Cc1cccn1Cc1ccc(F)cc1Cl
 : 95 | 96 | · | 101
#2 N#CC(C(=O)Nc1ccccc1)=C1CCCCC1
 : 81 | 112 | -2 | 110
#3 O=C(N=Nc1c(O)[nH]c2ccccc12)c1cccnc1
 : 92 | 87 | -100 | 103
#4 CCOC(=O)C1CCN(S(=O)(=O)c2cc3c(cc2Br)CCN3C(=O)C2CC2)CC1
 : · | · | 23 | 104
#5 S=c1[nH]nc2n1CCCCC2
 : 90 | 92 | -5 | ·
#6 O=C(c1ccccc1Cl)N1CCC(N2CCN(Cc3ccc(F)cc3)C2=O)CC1
 : · | · | -21 | 106
#7 O=C(NCCCn1ccnc1)C1CC(c2cccc(Br)c2)=NO1 (stereo unspecified)
 : 95 | 90 | -12 | 103
#8 COCCn1c(SCC(=O)c2ccccc2)nc2cc(C(=O)NC3CCCC3)ccc2c1=O
 : 74 | 74 | · | 103
#9 COc1ccc(N(C(=O)c2cccnc2)S(=O)(=O)c2ccc3c(c2)n(C)c(=O)n3C)cc1
 : · | · | 3 | 99
#10 CC(C)(C)c1ccc(-c2nn3c(-c4cccnc4)nnc3s2)cc1
 : · | · | 0 | 107
#11 COc1cc2c(C(=O)N3CCN(c4cccc(C)c4)C(C)C3)cn(CC(C)C)c(=O)c2cc1OC (stereo unspecified)
 : 97 | 79 | -9 | 109
#12 O=C(COc1ccccc1)Nc1ncc2c(n1)CC(c1ccccc1)CC2=O (stereo unspecified)
 : · | · | -16 | 103
#13 CCc1ccc(-c2nc(CSCC(=O)NCc3ccccc3OC)c(C)o2)cc1
 : 87 | 91 | -26 | 104
#14 COc1ccc2oc(=O)c(-c3csc(-c4ccc(Br)cc4)n3)cc2c1
 : 109 | 94 | · | 111
#15 O=C(O)C1CC=CCC1C(=O)Nc1ccccc1 (stereo unspecified)
 : 110 | 62 | -1 | 104
#16 CC1CCCC(C)N1C(=O)COC(=O)c1ccccc1Oc1ccccc1 (stereo unspecified)
 : 108 | 96 | -24 | ·

More structures.
item	mol	Sa growth inh	Sa growth inh second temp
33	COC(=O)c1ccc2c(=O)nc3n(c2c1)Cc1ccccc1-3	109	87
34	COc1cccc(/C=C2\SC(=S)N(CCC(=O)N3c4ccccc4Sc4ccccc43)C2=O)c1	·	·
35	CCC(Oc1cccc(Cl)c1)C(=O)NN1CCOCC1 (stereo unspecified)	103	91
36	COc1ccc(-n2cc(C(=O)Nc3ccc(C(=O)N4CCCCC4)cc3)nn2)cc1	81	76
37	Cn1c(S(=O)(=O)CC(N)=O)nc2ccccc21	118	93
38	COc1ccc(C)cc1NC(=O)Cn1c(=O)oc2cc(S(=O)(=O)N3CCCCC3)ccc21	98	91
39	COc1ccc(-c2cc(C(F)(F)F)n3nc(C(=O)N4CCCCC4C)cc3n2)cc1 (stereo unspecified)	96	91
40	COc1ccc(NS(=O)(=O)c2ccc3c(c2)CCCN3C(=O)C2CCC2)cc1OC	98	93

item	HCMV UL50-53 inh	GIV Gai3 FP
33	-35	·
34	-11	102
35	-13	99
36	-21	100
37	10	113
38	-20	97
39	-40	100
40	·	105

Going on with the list.
item	mol	Sa growth inh	Sa growth inh second temp
41	CC(=O)NC1(c2ccccc2)CCN(C)C(c2ccccc2)C1C (stereo unspecified)	113	96
42	Cc1nn(C)c(C)c1Sc1nccc(-c2cccnc2)n1	98	81
43	O=C(C1c2ccccc2Oc2ccccc21)N(Cc1ccco1)C1CCS(=O)(=O)C1 (stereo unspecified)	90	91
44	CN(C)S(=O)(=O)N(CC(=O)NCCSCc1ccccc1Cl)c1ccccc1	110	96
45	COc1ccc(-n2nnc(-c3nc(-c4cccc(OC)c4)cs3)c2N)cc1	·	·
46	Cn1nnc(-c2ccc(C(=O)O)cc2)n1	99	103
47	CCOC(=O)c1cc2c(=O)n3ccccc3nc2n(CC2CCCO2)c1=NC(C)=O (stereo unspecified)	93	99
48	CCOC(=O)N1C(=O)c2cc(OCC)ccc2S1(=O)=O	·	·

item	HCMV UL50-53 inh	GIV Gai3 FP
41	14	100
42	-4	106
43	-5	·
44	·	100
45	-5	113
46	-5	103
47	-83	109
48	-8	104

The results go on.
item	mol	Sa growth inh	Sa growth inh second temp
49	CCc1n[nH]c(=O)n1Nc1ccccc1	84	97
50	Cc1c(NC(=O)c2cc(-c3cccc(Br)c3)nc3ccccc23)c(=O)n(-c2ccccc2)n1C	·	·
51	CCOc1ccc(C2C(C(N)=O)=C(C)Nc3nc(-c4ccc(OC)cc4)nn32)cc1 (stereo unspecified)	112	79
52	Cc1ccccc1C(=O)NCCc1csc2nc(-c3ccccc3F)nn12	·	·
53	CS(=O)(=O)/C(C#N)=C/Nc1cnccn1	121	93

item	HCMV UL50-53 inh	GIV Gai3 FP
49	9	·
50	-12	102
51	-23	104
52	-13	99
53	-1	103
